From PubChem BioAssay
TsaE inh: qHTS Assay for Inhibitors of YjeE. AID 605, 2007. actives 0.05% (n = 71,000). Potency, µM. purified YjeE, fluorescence polarisation of a bound ADP probe. tRNA threonylcarbamoyladenosine biosynthesis protein TsaE (Escherichia coli (strain …; active = well fitted falling curve; inconclusive = weaker or top-dose-only fall, or a rising curve; inactive = flat or poorly fitted curve;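 further: top concentration of the series not given in the record; excess ADP was the control for the full effect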
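Purified YjeE (10 uM) with BODIPY Texas Red-labeled ADP probe (2 uM); compounds pin-transferred, 15 min at room temperature. Binding inhibition read as decreased fluorescence polarization; ADP titration as control.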
Bst PK mod: Pyruvate Kinase. actives 1.2% (n = 51,000). partly purified Bacillus stearothermophilus pyruvate kinase, luminescence ATP production; ribose 5-phosphate activator present at AC10. Potency, µM; in the data active means potency below about 11 µM; inconclusive means mostly about 12 µM to 25 µM; inactive means weaker than that;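 the screen sought inhibitors and activators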;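 further: potency means the concentration at half of the fitted maximal effect; scaled between full activation by ribose 5 phosphate and full inhibition by luteolin; about four in five hits inhibit and the cells do not say which; series up to 57 µM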
Active calls of the source: *; i = inactive; ? = inconclusive; . = no result given. Some of the compounds tested (hit frequency here may not be typical).

TsaE inh | Bst PK mod | molecule
i | >57 | Cn1c(=O)c2cc(S(=O)(=O)NCCC(=O)NCCc3ccc(Cl)cc3)ccc2n(C)c1=O
i | >57 | COc1ccc(CCn2c(NCCCN3CCOCC3)nc3c2c(=O)[nH]c(=O)n3C)cc1
i | . | COc1cccc(Cn2c(=O)c(-c3cccs3)nc3cnc(Nc4cccc(OC)c4)nc32)c1
i | >57 | CC(C)NS(=O)(=O)c1ccc(CCC(=O)NCc2ccco2)cc1
i | . | COc1ccc(OC)c(C(C)NC(=O)c2ccco2)c1 (centres undefined)
i | >57 | COc1ccc(C)cc1S(=O)(=O)N1CCN(Cc2ccccc2)CC1
i | >57 | COc1nc(-c2ccccc2)ccc1-c1noc(-c2cccs2)n1
i | >57 | COC(=O)[C@@H](NC(=O)NCc1ccccc1Cl)C(C)C

Continued:
TsaE inh | Bst PK mod | molecule
i | >57 | Cc1ccccc1NS(=O)(=O)c1cc(C(=O)NCc2ccco2)ccc1C
i | . | O=C(O)c1cc(=O)c2ccccc2[nH]1
i | >57 | Cc1cc(C(F)(F)F)n2nc(C(=O)O)c(Cl)c2n1
i | >57 | COc1ccc(NC(=O)C2CCN(C(=O)NC3CCCCC3)CC2)c(OC)c1
i | . | COc1cc(NC(=O)CN(c2cc(C)cc(C)c2)S(=O)(=O)c2c(C)noc2C)cc(OC)c1
i | >57 | Cc1cccn2c(=O)c3cc(C(=O)NC(C)C)c(=N)n(Cc4ccncc4)c3nc12
i | >57 | Cc1cc(=O)[nH]c(SCC(=O)Nc2ccc(Br)cn2)n1
i | . | CCOC(=O)CN1CC23C=CC(O2)C(C(=O)Nc2ccc(C(C)=O)cc2)C3C1=O (centres undefined)

Later entries:
TsaE inh | Bst PK mod | molecule
i | . | COc1cccc(-c2ccc3ncnc(N(C)Cc4ccco4)c3c2)c1
i | . | C[C@H]1[C@H](C)CC[C@]2(C(=O)O)CC[C@]3(C)C(=CC[C@@H]4[C@]5(C)C[C@H](O)[C@@H](O)[C@@](C)(CO)[C@@H]5[C@H](O)C[C@@]43C)[C@H]12
i | >57 | CSc1c(C#N)c(N)c(C#N)c2c1COC(C)(C)C2
i | >57 | CCCN1C2CCCC1CC(NC(=O)c1cc(OC)c(OC)c(OC)c1)C2 (centres undefined)
i | >57 | Cc1ccc(N(C(=O)Cn2nnc3ccccc32)C(C(=O)NC2CCCCC2)c2cn(C)nc2C)cc1 (centres undefined)
i | >57 | CCCc1c(O)nc(SCCN(CCC)CCC)[nH]c1=O
i | >57 | CCOC(=O)c1cnn(-c2cccc(Cl)c2)c1N
i | >57 | CCC(Sc1nc2cc3c(cc2c(=O)n1Cc1ccco1)OCO3)C(=O)Nc1ccccc1OC (centres undefined)

The results go on:
TsaE inh | Bst PK mod | molecule
i | . | CC(=O)c1c(NCc2ccccc2)nc(=O)n(-c2ccccc2)c1C
i | . | Cc1nc(SCC(=O)Nc2cc(C)on2)c2c(=O)n(C)c(=O)n(C)c2n1
i | >57 | COc1cccc(C(=O)Cn2c(N3CCOCC3)nc3c2c(=O)n(C)c(=O)n3C)c1
i | . | O=C1CCNc2cc3ccccc3cc21
i | . | NCCCCC(=O)O
i | . | CCn1c(-c2ccco2)nc2ccccc21
i | . | CCCCOCCCNC(=O)c1ccc2c(c1)OCO2
i | >57 | N#Cc1cc2cc3c(cc2nc1N1CCCCC1)OCCO3

Remaining list, next part.
TsaE inh | Bst PK mod | molecule
i | . | COC(=O)Cn1nc(-c2ccc(C)c(S(=O)(=O)N(C)C)c2)c2ccccc2c1=O
. | >26 | CCNC(=O)N(C(=O)NCC)n1c(C)nnc1C
i | >57 | CC(C)C(NC(=O)OCc1ccccc1)C(=O)OCC(=O)NCc1ccco1 (centres undefined)
i | . | c1ccc(-c2nc(NCc3cccnc3)c3oc4ccccc4c3n2)cc1
i | ? | Cc1ccc(C(=O)Nc2ccc3c(c2)nc2n3CCSC2)cc1
i | . | CC(C)N(Cc1nc(-c2ccc(Cl)cc2)no1)C(=O)CCCN1C(=O)c2ccccc2C1=O
i | >57 | Cc1ccc(CNC(=O)CCCn2c(=O)c3ccccc3n(CC(=O)NC3CCCC3)c2=O)cc1
i | . | Cc1oc(C(=O)O)cc1COc1ccc2c3c(c(=O)oc2c1C)CCCC3

More results follow:
TsaE inh | Bst PK mod | molecule
i | >57 | CC(C)C[C@H](NC(=O)Nc1ccc(S(N)(=O)=O)cc1)C(=O)O
. | >26 | CN(C)/C=C1\N=C(c2ccc(Cl)cc2Cl)OC1=O
i | >57 | COC(=O)C1=C(N)Oc2cc(C)n(Cc3ccco3)c(=O)c2C1c1cccc(Cl)c1 (centres undefined)
i | >57 | Cc1nc2ccccn2c1C(=O)NCc1cccnc1
. | >26 | Cc1c(C=NCCOCc2ccccc2)cnn1C
i | >57 | O=C1CSC(c2cn(-c3ccccc3)nc2-c2ccc3c(c2)OCCO3)N1CCN1CCOCC1 (centres undefined)
i | . | C(=N/Nc1ccccn1)/c1cccnc1
i | i | N#CCCSc1ncnc2c1oc1ccccc12

Other entries:
TsaE inh | Bst PK mod | molecule
i | . | Cc1nnc(OCc2nc3ccccc3n2C)c2ccccc12
i | . | O=C(O)[C@@H]1[C@@H](C(=O)NCc2cccnc2)[C@@H]2C=C[C@@H]1O2
i | >57 | C=CCn1c(N)c(C(=O)OCC(C)C)c2nc3ccccc3nc21
i | >57 | O=C(CC1(O)C(=O)Nc2ccccc21)c1ccc(-n2cccc2)cc1 (centres undefined)
i | >57 | Cn1cc(C(=O)NCCN2CCN(c3cccc(Cl)c3)CC2)c2c3ccccc3n(C)c2c1=O
i | . | C=CCSc1nc2c(c(=O)[nH]c(=O)n2C)n1Cc1ccc(C)cc1
i | >57 | COC(=O)c1ccc(NC(=O)CN2C(=O)CSC2=O)cc1
i | . | COC(=O)N1[C@H](C)C=C[C@]1(Cc1ccccc1)C(=O)OC

At a glance, some entries already given:
TsaE inh | Bst PK mod | molecule
i | >57 | Cn1c(=O)c2cc(S(=O)(=O)NCCC(=O)NCCc3ccc(Cl)cc3)ccc2n(C)c1=O
i | >57 | COc1ccc(CCn2c(NCCCN3CCOCC3)nc3c2c(=O)[nH]c(=O)n3C)cc1
i | . | COc1cccc(Cn2c(=O)c(-c3cccs3)nc3cnc(Nc4cccc(OC)c4)nc32)c1
i | >57 | CC(C)NS(=O)(=O)c1ccc(CCC(=O)NCc2ccco2)cc1
i | . | COc1ccc(OC)c(C(C)NC(=O)c2ccco2)c1 (centres undefined)
i | >57 | COc1ccc(C)cc1S(=O)(=O)N1CCN(Cc2ccccc2)CC1

(more compounds)
TsaE inh | Bst PK mod | molecule
i | >57 | COC(=O)C1=C(N)N(c2ccc(F)cc2)C2=C(C(=O)CCC2)C1c1ccc2c(c1)OCO2 (centres undefined)
i | >57 | Cc1cccc(Nc2nc(-c3ccccn3)cs2)n1
i | >57 | COc1cccc(NS(=O)(=O)c2ccc3c(c2)n(C)c(=O)c(=O)n3C)c1
i | >57 | CC1CCCC(NC(=O)C2CCN(S(=O)(=O)N3CCC4(CC3)OCCO4)CC2)C1C (centres undefined)
i | >57 | CCOC(=O)C1CCN(C(=O)CSc2cc(=O)n(CC)c3ccccc23)CC1
. | >26 | COC(=O)c1ccc(Nc2cc(C)nc(-c3ccccc3O)n2)cc1
i | >57 | CCc1sc(C(=O)NC)cc1Br
i | >57 | CCOC(=O)c1ccc(NC(=O)NC(C)C2CCCO2)cc1 (centres undefined)

Additional entries:
TsaE inh | Bst PK mod | molecule
i | >57 | COc1ccc(S(=O)(=O)N2CCCN(CC(=O)C(C)(C)C)CC2)cc1
i | >57 | COc1ccc(S(=O)(=O)N2CCCCCC2)cc1C(=O)OCc1c(C)noc1C
i | . | CC(C)[N+]1(C)[C@@H]2CC[C@H]1CC(OC(=O)[C@@H](CO)c1ccccc1)C2 (some centres undefined)
i | . | COc1ccc(S(=O)(=O)N2CCN(C3CCN(Cc4ccccc4)CC3)CC2)cc1
i | >57 | CC1CCN(C(=O)c2ccc(COc3ccccc3Cl)o2)CC1
i | >57 | COC(=O)c1cc(NC(=O)CN(c2ccc3c(c2)OCO3)S(C)(=O)=O)ccc1Cl
i | >57 | CCSc1nnc(-c2ccccc2NC(=O)CC)c(=O)[nH]1
i | . | O=C(c1ccncc1)N1CCC2(CC1)CCN(c1ncccn1)CC2

The results go on:
TsaE inh | Bst PK mod | molecule
i | >57 | COc1ccc(OCC(=O)Nc2ccc(S(=O)(=O)Nc3cc(C)nc(C)n3)cc2)cc1
i | >57 | COC(=O)c1ccc(NC(=O)CSc2nncn2C)cc1
i | . | Cc1nnc2c(-c3ccccc3)nc3ccccc3n12
i | >57 | O=C(NCc1ccccc1)N1CCC(n2cnc3cc(F)ccc32)CC1
i | . | CC(Oc1ccccc1)C(=O)NC1CC(C)(C)NC(C)(C)C1 (centres undefined)
i | . | O=c1oc(-c2cccs2)nc2sc3c(c12)CCC3
? | . | CN1CC=C2C(C#N)=C(N)C(C#N)(C#N)C(CCc3ccccc3)C2C1 (centres undefined)
i | >57 | CCn1c(C(C#N)/C(=N\S(=O)(=O)c2cccs2)c2ccccc2)nc2ccccc21 (centres undefined)

(list continues)
TsaE inh | Bst PK mod | molecule
i | . | CC1(C)CC(=O)C=C(NCc2cccnc2)C1
i | i | CCN(CC)C(=O)c1sc2nc(-c3ccc(OC)cc3)cn2c1C
i | >57 | COCCNC(=O)Cn1nc(C)c2ccccc2c1=O
i | >57 | COc1ccc(CCNC(=O)CC2COc3ccccc3O2)cc1OC (centres undefined)
i | >57 | COCCCNC(=O)CSC1=Nc2ccccc2C2=NC(CC(=O)NCc3ccccc3)C(=O)N12 (centres undefined)
i | >57 | COC(=O)c1c(NC(=O)c2nc3ncccn3n2)sc(C(=O)N(C)C)c1C
i | . | CCOC(=O)c1c(C)[nH]c2cc(Br)c(OC)cc12
i | . | COc1ccc(S(=O)(=O)NCc2ccccn2)c(Cl)c1Cl

Following part:
TsaE inh | Bst PK mod | molecule
i | >57 | O=C(Nc1ccccc1)NC1(C(=O)N2CCN(c3ncccn3)CC2)CCCCC1
i | >57 | COc1ccc2cc(CN(Cc3cccnc3)S(=O)(=O)c3ccccc3)c(=O)[nH]c2c1
i | >57 | CCOC(=O)c1c(NC(=O)CSc2nnc(C)s2)sc2c1CCN(C)C2
i | >57 | COC(=O)C1=C(C)Nc2ncnn2C1c1ccccn1 (centres undefined)
i | i | NC(=O)c1ccsc1NC(=O)C1CCCN1S(=O)(=O)c1ccc(Cl)cc1 (centres undefined)
i | >57 | CCOC(=O)N1CCN(C(=O)CCN2C(=O)COc3ccc(C)cc32)CC1
i | >57 | Cn1c(CN2CCCCC2)c(C#N)c2ccccc21
i | >57 | CS(=O)(=O)n1nc(C(=O)N2CCOCC2)nc1N

The listing continues:
TsaE inh | Bst PK mod | molecule
i | >57 | CCCOc1cccc(C(=O)N(Cc2ccco2)C2CCS(=O)(=O)C2)c1 (centres undefined)
i | >57 | C=COCCNC(=O)Nc1ccc(Cl)c(Cl)c1
i | . | COc1ccc(C(=O)N2CCC3(CC2)CCN(c2ncccn2)CC3)cc1
. | >26 | CCOC(=O)C1=C(C(C)=O)C(c2cccnc2)C(C#N)=C(N)O1 (centres undefined)
i | >57 | Cn1c(=O)c2[nH]c(CNCc3ccccc3Cl)nc2n(C)c1=O
i | . | Cc1nc2cnc(N3CCNCC3)nc2n(CCC#N)c1=O
i | >57 | O=S1(=O)N=C(N2CCOCC2)c2ccccc21
i | >57 | C=CCNC(=O)NC(=S)c1ccccc1

Other records.
TsaE inh | Bst PK mod | molecule
i | i | COc1cccc(NC(=O)c2oc3ccccc3c2NC(=O)c2ccc3c(c2)OCO3)c1
i | . | CN1CCC[C@H](C(=O)OCC(=O)[C@]2(O)CC[C@@H]3[C@H]4CCC5=CC(=O)CC[C@@]5(C)[C@H]4[C@@H](O)C[C@]32C)C1
i | >57 | Cc1cc(C)nc(-n2nc(C)cc2NC(=O)c2cc3ccccc3oc2=O)n1
i | >57 | COc1cccc(C(=O)NC2(C(F)(F)F)N=C3SCCN3C2=O)c1 (centres undefined)
i | >57 | O=C(CSc1nnc2c(Cl)cc(C(F)(F)F)cn12)Nc1ccc2c(c1)OCO2
i | . | CCCCn1c(SCC(=O)OCC)nc2c1c(=O)[nH]c(=O)n2C
i | >57 | Oc1cccc(Nc2ncnc3ccccc23)c1
i | . | COc1ccccc1NC(=O)CSc1nnc(Cn2c(=O)sc3ccccc32)n1C

In the list so far, 3 contain a CF3 group:
TsaE inh | Bst PK mod | molecule
i | >57 | Cc1cc(C(F)(F)F)n2nc(C(=O)O)c(Cl)c2n1
i | >57 | COc1cccc(C(=O)NC2(C(F)(F)F)N=C3SCCN3C2=O)c1 (centres undefined)
i | >57 | O=C(CSc1nnc2c(Cl)cc(C(F)(F)F)cn12)Nc1ccc2c(c1)OCO2

(continued)
TsaE inh | Bst PK mod | molecule
i | >57 | Cn1nnnc1Sc1ncnc2scc(-c3ccccc3)c12
i | . | S[C@@H]1CCCN(Cc2ccccc2)C1
i | >57 | O=C(Cn1ccc2ccccc2c1=O)NCCC(=O)N1CCN(c2cccc(C(F)(F)F)c2)CC1
i | >57 | C=C1C2(C(=O)NCc3ccco3)CCC(C2)C1(C)C (centres undefined)
i | >57 | CCCn1c(NC(=O)C2CCN(S(=O)(=O)c3cccs3)CC2)nc2ccccc21
i | >57 | CCNc1nc(NC(C)C)nc(OCCNS(=O)(=O)c2cc(C)ccc2C)n1
i | >57 | COc1ccc(NC(=O)NCc2cccnc2)cc1OC
i | >57 | Cc1ccc(S(=O)(=O)N2CCN(C(=O)CCC(=O)N3CCc4ccccc43)CC2)cc1
i | >57 | CCCn1c(C)cc(=O)c2cc(NC(=O)c3cnccn3)ccc21
i | . | O=C(COC(=O)c1cc2ccccc2o1)c1ccccc1
i | . | Cc1cccc(N2CCN(C(=O)C3CCCN(S(=O)(=O)c4c(C)noc4C)C3)CC2)c1C (centres undefined)
